Bioassay records (PubChem)
VACV mCherry inh – inhibitors of vaccinia virus infection (mCherry reporter signal). Vaccinia virus mCherry reporter infection, fluorescence; about a quarter of the inactives have no number. Potency, µM (top dose mostly 36.5 µM), inactives show at the top dose activity change, negative = inhibition, most hits filed as inhibitors. hit rate 0.63% among 310,000. AID 720579; active = well fitted inhibition curve with a large enough effect; inconclusive = small, poorly fitted or top-dose-only effect; inactive = no such curve, though single readings can be large or run the other way; tested in A549 cells; also: nearly all actives have a fitted effect of over 35% in size; inactives centre near -10
VACV Venus inh – inhibitors of vaccinia virus (Venus reporter). Vaccinia virus Venus reporter expression, fluorescence. Potency, µM (series often up to 36.5 µM), for the others: at the highest dose activity change, negative = inhibition, actives largely listed as inhibitors. hit rate 0.46% among 330,000; active means well fitted inhibition curve with a large enough effect; inconclusive means small, poorly fitted or top-dose-only effect; inactive means no such curve, though single readings can be large or run the other way; tested in A549 cells; also: nearly all actives have a fitted effect of over 30% in size; inactives centre near -10
* hit, by the source's call; i = inactive; u = inconclusive; x = no result given; & = joins results of further samples; [ ] = another dose, or the depositor's remark. % is scaled to controls: 0 for no effect and ±100 for the full control effect; potency is read from the fitted curve at half-maximal effect.

Order of values – VACV mCherry inh | VACV Venus inh
1	CCOC(=O)C1CCC(CN(Cc2cccc(Br)c2)S(=O)(=O)c2ccc(Cl)cc2)CC1 (stereo not drawn)
 : -1% | -1%
2	CCCCOP(=O)(OCCCC)C(Nc1ccccc1)c1ccc2c(c1)OCO2 (stereo not drawn)
 : -11% | -18%
3	NC1=NC2(CCC(c3ccccc3)CC2)n2c(nc3ccccc32)N1 (stereo not drawn)
 : x | u
4	O=C(c1ccc(F)cc1)C1CCN(C(=S)NCC2CCCO2)CC1 (stereo not drawn)
 : -13% | -10%
5	CC1(C(=O)NCc2cccc3ccccc23)CCN1Cc1cccc2c1OCO2 (stereo not drawn)
 : i | -1%
6	CC1CCCC(NC(=O)COC(=O)[C@@H](NC(=O)c2ccco2)C(C)C)C1C (stereo partly drawn)
 : i | -12%
7	O=C(CSc1nnnn1C1CCCC1)N1CCCCC1
 : -5% | -3%
8	CC1=C(C(=O)NC2CCCc3c2cnn3-c2cccc(C)c2C)OCCO1 (stereo not drawn)
 : -23% | -30%
9	COc1ccccc1N1CCN(C(=O)c2ccccc2NC(=O)C2CCCCC2C(=O)O)CC1 (stereo not drawn)
 : i | -13%
10	CC1(c2nnnn2-c2ccc3c(c2)OCCO3)CCC(=O)N1Cc1cccc(C(F)(F)F)c1 (stereo not drawn)
 : -17% | -8%
11	COc1ccc(N(C(C)C(=O)Nc2ccc(S(=O)(=O)N3CCOCC3)cc2)S(C)(=O)=O)cc1 (stereo not drawn)
 : 2% | 2%
12	CC(=O)Nc1ccc(S(=O)(=O)Nc2cccc(C(=O)NC(C)(C)C)c2)cc1
 : x | -9%
13	CCN(CC)S(=O)(=O)c1ccc(N2CCN(C)CC2)c(NC(=O)COc2ccc(F)cc2Cl)c1
 : -18% | -26%
14	COc1cc(C2Nc3ccccc3NC3=C2C(=O)CC(c2ccc(OC)c(OC)c2)C3)ccc1O (stereo not drawn)
 : u | -7%
15	O=C(Cn1cnc(S(=O)(=O)N2CCCC2)c1)Nc1cccc(F)c1
 : 4%[7.34 µM] | 14%[7.34 µM]
16	COC(=O)C(CCCN1C(=O)c2ccccc2C1=O)(NC(C)=O)c1nnn(C)n1 (stereo not drawn)
 : i | -10%
17	O=C(C1CCN(CC2CCCCC2)CC1)N1CCCC1
 : -8% | -4%
18	Cc1ccc(-n2nc3c(c2NC(=O)c2c(-c4ccccc4Cl)noc2C)CSC3)cc1
 : -12% | -5%
19	CCN(CC)CCSc1nc2ccccc2c(=O)n1-c1ccc(Cl)cc1
 : -8%[7.34 µM] | -2%[7.34 µM]
20	Cc1onc(-c2ccccc2)c1C(=O)c1c[nH]c(C(=O)NCc2ccncc2)c1
 : -2% | -4%
21	CC1(c2nnc(Cc3ccccc3)o2)CC(c2ccccc2)=NO1 (stereo not drawn)
 : i | -11%
22	Cc1nn(C(C)C(=O)NC2CCC(C)CC2)c(=O)c2c1sc1ccccc12 (stereo not drawn)
 : -10% | -11%
23	NS(=O)(=O)c1ccc(CCNC(=S)NC(=O)c2ccccc2Br)cc1
 : -10% | -9%
24	CCOc1cc2ccccc2cc1C(=O)OCC(=O)Nc1ccc(Br)cc1
 : -2% | -11%
25	Cc1cccc(N2C(=O)NC(=O)C3(Cc4cc(C)ccc4N(C)C3)C2=O)c1 (stereo not drawn)
 : -36% | -27%
26	Cc1ccc(OC(=O)NC2CCS(=O)(=O)C2)cc1C (stereo not drawn)
 : -17% | -8%
27	Cc1ccccc1Nc1c([N+](=O)[O-])cncc1[N+](=O)[O-]
 : u | -26%
28	O=C(NC(=S)Nn1cnnc1)c1ccc(F)cc1Cl
 : -5% | -9%
29	Clc1ccc(C#Cc2cccnc2)cc1
 : i | 0%
30	Cc1nnc(SCC(=O)NCc2cccs2)[nH]c1=O
 : -8% | -6%
31	CC(C)Oc1cccc(C(=O)Nc2ccc(Br)cc2F)c1
 : -29% | u
32	CCCCS(=O)(=O)Nc1ccc2c(c1)ncn2C1CCCCC1
 : -18% | -9%
33	Cc1ccc(NC(=O)C2CCCN(S(=O)(=O)c3c(C)noc3C)C2)cc1 (stereo not drawn)
 : -13% | -15%&-19%
34	O=c1cc(CN2CCN(c3ccccc3O)CC2)nc2sccn12
 : x | -17%
35	O=C(CN1C(=O)NC2(CCCC2)C1=O)NCCC1=CCCCC1
 : i | -14%
36	Cc1ccn2cc(CNC(=O)c3cccc(C(F)(F)F)c3)nc2c1
 : -5% | -3%
37	CC(O)CC(C)O (stereo not drawn)
 : i | -10%
38	Cc1ccc(S(=O)(=O)NC(=O)C2(C)CCN2C(=O)C2CCCCC2)nc1 (stereo not drawn)
 : 9% | 10%
39	c1cncc(-c2nnc(-c3cccnc3)nn2)c1
 : -9% | 2%
40	CC(C)c1cc(C(=O)Nc2cc(Cl)ccc2O)no1
 : i | -12%
41	CC(C)C[C@H]1COc2cc(N(C)CCO)ccc2S(=O)(=O)N1
 : 5% | 3%
42	Clc1cccc(CSc2nnc(-c3c[nH]c4ccccc34)o2)c1
 : i | -16%
43	O=S(=O)(Nc1ccc(Oc2ncccn2)c(Cl)c1)c1ccc(Cl)cc1
 : -17% | -24%
44	COc1cccc(N2C(=O)NC(=O)/C(=C\c3ccc([N+](=O)[O-])s3)C2=O)c1
 : 40%[activator] | 63%[activator]
45	Cc1ccc(NC(=O)CN2C(=O)NC(C)(c3ccc(Cl)cc3)C2=O)cc1S(=O)(=O)N1CCOCC1 (stereo not drawn)
 : i | -22%
46	COc1ccc(CN2C(=O)c3oc4ccc(F)cc4c(=O)c3C2c2ccc(O)cc2)cc1 (stereo not drawn)
 : -10% | -9%
47	CCCCn1ccnc1C
 : i | 0%
48	COc1cc(NS(=O)(=O)c2ccc3c(c2)CCN3S(C)(=O)=O)cc(OC)c1
 : u | -13%
49	Cn1cccc1C(=O)NCC1COc2ccccc2O1 (stereo not drawn)
 : -12% | 0%
50	CCOC(=O)CN(c1ccccc1C)S(=O)(=O)c1ccc(Cl)cc1
 : -17% | -11%
51	Cc1c(C(=O)C(=O)NCCC2=CCCCC2)c2ccccc2n1C
 : -12% | -9%
52	CCCCC1(CC(=O)OC)C(=O)N(c2ccccc2)N(c2ccccc2)C1=O
 : -12% | -1%
53	Cc1ccc(S(=O)(=O)N/N=C/c2cc(Br)ccc2O)cc1
 : -26% | -1%
54	OC(CNCC(c1ccc(Cl)cc1Cl)c1c[nH]c2ccccc12)c1ccccc1 (stereo not drawn)
 : u | u
55	C=CCN1CCN(C(=O)c2c(-c3ccccc3)noc2C)CC1
 : 0% | -2%
56	Cc1cccc(-n2ncc3c(N(CCO)CCO)ncnc32)c1
 : -6% | -8%
57	Cn1ncc2c(NCc3ccc(Cl)cc3)ncnc21
 : u | -13%
58	CN(C)c1ccc(C2(c3ccc(N(C)C)cc3)OC(=O)c3cc(N)ccc32)cc1
 : u | -16%
59	S=c1[nH]nc(-c2cccs2)n1Cc1ccccc1
 : i | 8%
60	CC(NC(=O)N1CCN(c2ccccc2F)CC1)c1ccc(F)c(F)c1 (stereo not drawn)
 : i | -12%

Structural class: those above containing a CF3 group.
Order of values – VACV mCherry inh | VACV Venus inh
10	CC1(c2nnnn2-c2ccc3c(c2)OCCO3)CCC(=O)N1Cc1cccc(C(F)(F)F)c1 (stereo not drawn)
 : -17% | -8%
36	Cc1ccn2cc(CNC(=O)c3cccc(C(F)(F)F)c3)nc2c1
 : -5% | -3%

Next section
Order of values – VACV mCherry inh | VACV Venus inh
61	O=C(CN1C(=O)C2CC=CCC2C1=O)Nc1ccc(F)c(Cl)c1 (stereo not drawn)
 : i | -17%
62	CCOc1ccc(CCNC(=O)Cn2c(C)c3cnn(-c4ccccc4)c(=O)c3c2C)cc1
 : -10% | 0%
63	CN(Cc1c(C(=O)N/N=C/c2cccc(O)c2)nnn1-c1nonc1N)c1ccccc1
 : i[7.34 µM] | -3%[7.34 µM]
64	CCN1C(=O)CS/C1=N\S(=O)(=O)c1ccc(Cl)cc1
 : 10% | -3%
65	O=C(CCS(=O)(=O)c1cc(Br)cc2c1N(C(=O)C1CC1)CC2)NCc1ccco1
 : x | -9%
66	CCCCn1c(O)c(C=NCCCN(CC)CC)c(=O)[nH]c1=O
 : x | -5%
67	O=C1CC(SCCc2nc3ccccc3[nH]2)C(=O)N1c1ccc(Cl)cc1 (stereo not drawn)
 : -15% | -10%
68	O=C1NNC(=O)C2C3C=CC(C4CC34)C12 (stereo not drawn)
 : -12% | -15%
69	CCN(CC)CCN(C(=O)CCS(=O)(=O)c1ccccc1)c1nc2cc(OC)c(OC)cc2s1
 : -29% | -13%
70	O=C(COC(=O)CCC(NC(=O)OCc1ccccc1)C(=O)OCC(=O)Nc1ccccc1)Nc1ccccc1 (stereo not drawn)
 : -2% | -7%
71	O=C(CN(C(=O)c1csnn1)c1ccc2c(c1)OCCO2)NCc1ccc(F)cc1
 : -1% | -5%
72	CCc1ccccc1NC1c2ccccc2C(=O)N1c1cccnc1 (stereo not drawn)
 : i | -9%
73	COc1ccc(C(=O)Nc2ccc([N+](=O)[O-])cn2)cc1OC
 : -11% | -3%
74	O=C(O)c1ccc(CNC(=S)Nc2ccccc2)cc1
 : -8% | -1%
75	CCN(C[C@H]1N[C@@](Cc2ccccc2)(C(=O)OC)[C@H]2C(=O)N(C)C(=O)[C@@H]12)S(=O)(=O)c1ccc(OC)cc1
 : -8% | u
76	CCOc1ccc(NC(=O)CN2CCN(c3ccc(Cl)cc3)CC2)cc1
 : -3% | -12%
77	C=CCNc1nc2cc(-c3cccc(NC(C)=O)c3)sc2c(=O)n1C
 : i | -5%
78	CC(=NNC1=NCCN1)c1cn(C2=NCCN2)nc1C
 : i | -9%
79	Cc1coc2cc3oc(=O)c(CC(=O)N[C@@H](CC(C)C)C(=O)O)c(C)c3cc12
 : -17% | -8%
80	O=C(Nc1cccc(N=Cc2cc(Cl)cc(Br)c2O)c1)c1ccco1
 : i | -3%
81	O=C(COC(=O)c1ccccn1)Nc1cccc2ccccc12
 : -5% | -12%
82	O=C(O)c1nn(CCOc2ccc(Br)cc2)c(=O)c2ccccc12
 : i | 3%
83	COc1ccc(C2CC(=O)C3=C(C2)NC(C)=C(C#N)C3c2ccc(N(C)C)cc2)cc1 (stereo not drawn)
 : x | 1%
84	COC(=O)c1ccccc1S(=O)(=O)NNC(=O)C1COc2ccccc2O1 (stereo not drawn)
 : -4% | -9%
85	Cc1ccc(C)c(-n2nnc(-c3nc(-c4ccccc4C)no3)c2C)c1
 : -7%[7.34 µM] | -4%[7.34 µM]
86	CCOC(=O)c1nn(C)c(=S)n(C)c1=O
 : -5% | -4%
87	CCOc1cccc2sc(N(CCCN(C)C)C(=O)c3ccc(S(=O)(=O)N(C)Cc4ccccc4)cc3)nc12
 : u | u
88	Cc1c(Cl)cc(-n2cnnn2)cc1[N+](=O)[O-]
 : -6% | -6%
89	CC(=O)/C(N=Nc1ccc2c(c1)OCO2)=C(\C)O
 : i | -10%
90	O=C1CCCN1c1ccc(S(=O)(=O)N2CCCCC2)cc1
 : i | -16%
91	COc1ccc(-n2cc(CNC3CCN(C)CC3)c(-c3cccc(F)c3)n2)cc1
 : u | u
92	CC(=O)N(C)c1ccc(NC(=S)Nc2cccc3ccccc23)cc1
 : i | -3%
93	O=C(NCCN1CCOCC1)c1cnn(-c2nccc(-c3cccs3)n2)c1C1CC1
 : -9% | -3%
94	O=C(Nc1ccn([C@H]2CC[C@@H](CO)O2)c(=O)n1)c1ccccc1
 : i | -8%
95	Cc1sc2ncn(CC(=O)N(CC(=O)NC3CCCC3)Cc3cccs3)c(=O)c2c1C
 : -6% | -18%
96	COc1cccc(NC(=O)C2CCCN(S(=O)(=O)c3ccc(-n4cnnn4)cc3)C2)c1 (stereo not drawn)
 : i | -17%
97	CCCn1c(/C=N/Nc2nc3ccccc3[nH]2)nc2ccccc21
 : 10µM* | u
98	COc1ccc(C2c3sc(=O)[nH]c3SC3C4CCC(C4)C23)cc1OC (stereo not drawn)
 : x | -25%
99	COc1ccc(-n2c(SC)nc3sc4c(c3c2=O)CCN(C)C4)cc1
 : i | -28%
100	COC(=O)CSCC(=O)Nc1nnc(-c2ccccc2C)s1
 : i | -1%
101	CCn1nc(C)c(CNC(=O)CC2C(=O)NCCN2CC(C)C)c1C (stereo not drawn)
 : i | -6%
102	CCc1ccc(NC(=O)CSc2nc3n[nH]c(C)c3c(=N)n2-c2ccc(C)cc2)cc1
 : u | u
103	CCOC(=O)CCCN1CC(O)=C(c2nc3ccccc3s2)C1=N
 : -7% | -15%
104	CC(C)CN(C(=O)COC(=O)COc1ccc2ccccc2c1)c1c(N)n(Cc2ccccc2)c(=O)[nH]c1=O
 : -21% | -10%
105	COc1ccnc(CS(=O)c2nc3cc(C(O)(F)F)ccc3[nH]2)c1OC (stereo not drawn)
 : i | -9%
106	CN(CCC#N)c1ncnc2scc(-c3ccccc3)c12
 : x | -21%
107	Cc1cccc2nc(CNc3ccc(F)cc3)cn12
 : x | -15%
108	Clc1ccc2c(NCc3ccccc3)ccnc2c1
 : -4% | -12%
109	CC1(C)NC(=O)N(CC(O)COC2CCCCC2)C1=O (stereo not drawn)
 : -17% | -3%
110	CC(=O)N/C(=C/c1ccc2c(c1)OCO2)C(=O)NCCO
 : -2% | 0%
111	O=C(CCCN1C(=O)c2cccc3cccc(c23)C1=O)N1CCc2ccccc2C1
 : -3% | -13%
112	C#CCSc1n[nH]c(=O)n1-c1cccc(C(F)(F)F)c1
 : -17% | -11%

Record cards, from the list above.
Results for Cc1cccc2nc(CNc3ccc(F)cc3)cn12 : VACV mCherry inh: x; VACV Venus inh: -15%
Results for COc1ccnc(CS(=O)c2nc3cc(C(O)(F)F)ccc3[nH]2)c1OC (stereo not drawn) : VACV mCherry inh: i; VACV Venus inh: -9%
Results for CC(C)CN(C(=O)COC(=O)COc1ccc2ccccc2c1)c1c(N)n(Cc2ccccc2)c(=O)[nH]c1=O : VACV mCherry inh: -21%; VACV Venus inh: -10%
